PKD1 inh – inhibitors of human PKD1 kinase; inhibition, %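 (about 10 µM by stock and volumes)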; PKD1 kinase fluorescence polarization assay; 200,000 compounds, 0.056% hits; AID 797; Q15139;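 active means inhibition of 50% or more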;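 further: controls were vehicle for no effect and a reference inhibitor for full effect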
RGS16-Gao HTS – modulates binding between human RGS16 and Galphao. 220,000 compounds, 0.38% hits. bead-based flow cytometry RGS16-Galphao binding, fluorescence; actives lie on both sides. binding response (% of control), % at 10 µM. O15492+P09471;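 active means below 25% or above 175%, edge rows of some plates excepted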;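 further: Galphao activated by GDP with aluminum fluoride before binding; 100% = wells without compound and 0% = beads without RGS; some results beyond the cut were filed as inactive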
Target sequence (O15492 whole entry, looked up): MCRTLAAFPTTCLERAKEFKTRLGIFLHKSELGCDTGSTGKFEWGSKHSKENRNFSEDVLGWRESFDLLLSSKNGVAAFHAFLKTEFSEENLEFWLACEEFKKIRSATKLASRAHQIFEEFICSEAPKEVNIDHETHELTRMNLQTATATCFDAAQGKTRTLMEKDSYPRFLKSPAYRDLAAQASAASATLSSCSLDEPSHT
Target sequence (P09471 whole entry, looked up): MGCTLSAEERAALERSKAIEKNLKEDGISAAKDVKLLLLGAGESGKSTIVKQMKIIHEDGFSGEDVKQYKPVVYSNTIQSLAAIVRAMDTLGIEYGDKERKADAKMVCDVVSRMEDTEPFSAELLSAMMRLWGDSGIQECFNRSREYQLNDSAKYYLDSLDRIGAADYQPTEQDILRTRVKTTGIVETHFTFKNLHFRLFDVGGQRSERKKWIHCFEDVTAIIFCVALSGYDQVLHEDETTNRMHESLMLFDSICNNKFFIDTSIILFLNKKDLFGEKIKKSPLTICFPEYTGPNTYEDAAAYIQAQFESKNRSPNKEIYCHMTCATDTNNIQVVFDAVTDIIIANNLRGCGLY
Insulin prom inh – TRM-6 insulin promoter activity inhibition; TRM-6 cells (human fetal islet line), insulin promoter-eGFP reporter, imaging; reporter expression induced with tamoxifen; inhibition, % at 2 µM; 130,000 compounds, 0.9% hits; AID 1273;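 active means inhibition above the mean plus 3 SD, with well images judged a real hit on visual review, cut at about 60% in these data, passing the limit was not always enough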
GALR2 agonist – activates the human galanin receptor 2. activation, %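 (tested at 5 µM)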. GALR2-expressing cells, agonist activation read-out. 140,000 compounds, 0.48% hits;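 active means above mean plus 3 SD of all compounds, about 5% in these data, not always enough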;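 further: 0% = vehicle buffer wells and 100% = reference agonist at full effect; tested in CHO reporter cells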
Target sequence (O43603 whole entry, looked up): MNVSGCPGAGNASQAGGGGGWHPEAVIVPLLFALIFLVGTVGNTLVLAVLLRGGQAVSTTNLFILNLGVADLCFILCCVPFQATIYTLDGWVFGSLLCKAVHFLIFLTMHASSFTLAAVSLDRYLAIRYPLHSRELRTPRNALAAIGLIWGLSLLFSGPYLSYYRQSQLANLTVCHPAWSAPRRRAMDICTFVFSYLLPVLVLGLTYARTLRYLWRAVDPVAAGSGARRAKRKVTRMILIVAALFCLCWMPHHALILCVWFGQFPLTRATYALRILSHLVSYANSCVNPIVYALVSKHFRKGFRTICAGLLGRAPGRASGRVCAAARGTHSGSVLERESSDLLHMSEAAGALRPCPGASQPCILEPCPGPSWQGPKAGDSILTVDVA
HSV augment – HSV replication enhancement. HSV replication augmentation in cells, fold increase. maximum fold increase. 220,000 compounds, 0.005% hits. AID 1956;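 active means peak rise of 1.5-fold or more in the series; tested in PC3 cells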;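 further: first round at 10 µM; read as green reporter fluorescence; hits show the peak of a series up to 25 µM; 1 = signal of infected wells without compound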
Insulin prom inh cell count – also measured in Insulin prom inh; calls as there; normalized cell count, %; measured here: cell count, toxicity; reference of the scale not given here;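 cells exposed to compound for 48 h; stained nuclei by imaging scaled within each plate; lower means fewer cells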
HSV augment primary fold – recorded beside HSV augment, whose call it bears; fold increase; compound at 10 µM; measured here: primary screen fold increase 10 uM; tested in PC3 cells;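 GFP signal in the first replicate; 1 = infected wells without compound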
Starred values were filed as active, the others as inactive; i = inactive; / = no result given.

SMILES	PKD1 inh	RGS16-Gao HTS	Insulin prom inh	Insulin prom inh cell count	GALR2 agonist	HSV augment	HSV augment primary fold
N#Cc1ccccc1S(=O)c1ccccc1C(=O)Nc1ccccc1 (stereo unspecified)	-1	112	-45	84	/	i	1
O=C(Nc1csc([N+](=O)[O-])c1)Nc1ccccc1Cl	/	100	/	/	/	i	0.86
S=c1[nH]nc(-c2ccc(Cl)cc2)n1/N=C/c1ccco1	/	98	/	/	/	i	0.92
Cc1ccc(C(=O)/C=C/c2ccccc2[N+](=O)[O-])cc1	-3	97	/	/	/	i	0.67
COc1ccc(OCCOC(=O)c2[nH]c(C)c(C(C)=O)c2C)cc1	1	100	/	/	/	i	1
CC(CCc1ccccc1)NC(=O)c1ccc(NC(=O)c2ccccc2)cc1 (stereo unspecified)	-5	107	/	/	0.6	i	0.89
O=C(Nc1ccc(-c2nc3ccccc3[nH]2)cc1)c1ccc2c(c1)OCO2	-5	98	/	/	6.9	i	0.64
O=C(CNc1n[nH]c(=O)[nH]c1=O)N/N=C/C1CC=CCC1 (stereo unspecified)	/	96	/	/	/	i	0.98
CC(C)n1c(N2CCN(C(=O)c3cccs3)CC2)nc2ccccc21	-3	99	37	77	1.0	i	0.96
COc1ccc(OCc2cc(-c3ccc(Cl)cc3)no2)cc1	-5	97	31	118	/	i	0.99
CCOc1ccc(C(=O)Nc2c3c(nn2-c2cccc(C)c2C)CS(=O)C3)cc1 (stereo unspecified)	-5	109	/	/	-3.4	i	1
CC(=O)NC(CCS(C)(=O)=O)C(=O)Nc1cc(C)on1 (stereo unspecified)	6	/	/	/	0.4	i	0.86
COc1cccc2c1OC1(C)CC2NC(=O)N1c1cccc(C(=O)Nc2ccc3c(c2)OCCO3)c1 (stereo unspecified)	-7	103	11	121	-1.9	i	0.98
Cc1ccc(S(=O)(=O)NC(=O)NCc2ccc(F)cc2)cc1	-2	103	/	/	/	i	1
CC(C)COP(=O)(OCC(C)C)C(O)c1ccc(F)cc1 (stereo unspecified)	3	92	/	/	-1.0	i	1.1
CCOC(=O)c1oc2cc(OCC(=O)OC)ccc2c(=O)c1-c1ccc(OC)c(OC)c1	/	102	/	/	/	i	0.52
CCCCNc1ncnc2c1cnn2-c1ccccc1	1	97	23	68	-1.4	i	0.79
O=C(NCC1CCCO1)C(=O)N/N=C/c1ccccc1C(=O)O (stereo unspecified)	-3	105	/	/	/	i	0.98
C=C1[C@@H](OC(C)=O)CC[C@]2(C)[C@@H]1C[C@@H]1C[C@H](OC(C)=O)C(C)=C([C@@H](OC(C)=O)[C@@H]2OC(C)=O)C1(C)C	/	95	/	/	/	i	0.99
COC(=O)C1=C(C)N(C)C(=O)NC1c1ccccc1 (stereo unspecified)	-11	100	0	74	-0.6	i	0.95
CCn1c(CNC(=O)COc2c(C)cccc2C)nnc1SCC(=O)Nc1nccs1	5	119	-10	134	-0.4	i	0.82
CCN(CCn1cccn1)Cc1cn[nH]c1-c1ccc(OC)cc1F	5	104	/	/	/	i	1.1
COC(=O)c1cc(=O)n(Cc2ccc(OC)c(OC)c2)c(=Nc2ccc(F)cc2)s1	-2	101	/	/	-1.8	i	0.57
CCOC(=O)C1(Cc2ccc(OC)cc2)CCN(C(=O)C2CC(=O)N(C3CC3)C2)CC1 (stereo unspecified)	/	103	/	/	/	i	1.1
O=C(NC1CC1)C1CCN(C2CCN(C(=O)Cc3ccc(F)cc3)CC2)CC1	0	106	/	/	/	i	1
CCOc1ncccc1C(=O)N1CCN(C(=O)c2ccccc2)CC1	-8	100	37	122	/	i	1
CSc1ccc(C(=O)C2CCCN(C(=O)c3csc(C(C)=O)c3)C2)cc1 (stereo unspecified)	10	100	/	/	/	i	0.98
O=C(NCc1nc(-c2ccccc2)no1)c1ccc(Br)o1	-3	103	/	/	-2.4	i	1.1
Cc1ccc(SCCNC(=S)Nc2cc(C)ccc2C)cc1	1	108	24	115	-0.3	i	0.69
CN1CCN(c2cc(=O)n(Cc3ccc(F)cc3)c(=O)[nH]2)CC1	2	100	/	/	-1.7	i	1.2

The closing 2 compounds of the section above open the next one.
SMILES	PKD1 inh	RGS16-Gao HTS	Insulin prom inh	Insulin prom inh cell count	GALR2 agonist	HSV augment	HSV augment primary fold
Cc1ccc(SCCNC(=S)Nc2cc(C)ccc2C)cc1	1	108	24	115	-0.3	i	0.69
CN1CCN(c2cc(=O)n(Cc3ccc(F)cc3)c(=O)[nH]2)CC1	2	100	/	/	-1.7	i	1.2
Clc1ccc(NCc2nnc3n2CCCCC3)cc1	4	106	/	/	-1.1	i	1
COc1ccc2oc(=O)c(C(=O)n3ccc(C)n3)cc2c1	-1	101	-31	104	-1.4	i	1.1
Cc1ccc(-c2nnc(OCCN3CCOCC3)c3ccccc23)cc1	1	109	/	/	-2.6	i	1.1
COc1ccc(C2CC(c3cccs3)=NN2C(=O)CSc2nc3ccccc3s2)cc1 (stereo unspecified)	-4	106	37	137	-0.2	i	0.93
COc1ccc(S(=O)(=O)CCC(=O)Nc2cc(C)ccc2OC)cc1	4	99	/	/	/	i	1.1
CCN1/C(=C(\O)c2ccccc2)C(=O)c2ccccc2S1(=O)=O	-9	99	/	/	-2.4	i	0.81
COc1c(C)cc(C(=O)C2CCCN(Cc3ccc(Oc4ncccn4)cc3)C2)cc1C (stereo unspecified)	12	107	/	/	/	i	1.1
O=C(CCN1C(=O)c2ccccc2C1=O)NC(=S)Nc1ccccc1Cl	-5	91	0	107	-1.1	i	1
CCOC(=O)NN1C(=O)c2ccccc2NC1c1cccc(O)c1 (stereo unspecified)	-2	110	-3	121	0.5	i	1
O=C(CCn1[nH]c(=O)c2ccccc2c1=O)N1CCOCC1	-7	100	-9	125	-1.4	i	0.87
CCOC(=O)N1CCC(N(C(=O)Nc2cccc(OC)c2)C(C)CC)CC1 (stereo unspecified)	-9	105	-1	62	0.1	i	0.98
CCOc1ccc(-c2cn(-c3ccc(OC)cc3)c(SC)n2)cc1	-3	97	7	103	-0.7	i	1.1
Cc1ccc(-c2nnn(CC(=O)N(CC(=O)NC(C)C)c3cnc4ccccc4c3)n2)o1	-2	111	/	/	-2.4	i	1
Cc1nc2c([nH]c3ccccc32)c(=O)n1N	20	107	100*	75*	/	i	0.9
O=c1cc(-c2cccnc2)oc2c1ccc1ccccc12	/	116	/	/	/	i	0.82
Cc1cccc(C)c1NC(=S)N1CCOCC1	/	88	/	/	/	i	1.1
Cc1ccccc1-n1c(N)cc(=O)[nH]c1=S	-12	103	-3	164	0.3	i	0.73
COc1ccccc1CNC(=O)C(CC(C)C)NS(=O)(=O)c1ccc2c(c1)oc(=O)n2C (stereo unspecified)	-2	101	/	/	-1.1	i	0.86
CCOc1ccc(C(=S)NC2CCCCC2)cc1OC	1	71	4	111	-0.7	i	0.96
O=C(NN1CCOCC1)c1cc(-c2cccc(Cl)c2)nc2ccccc12	1	100	/	/	-2.9	i	1.1
COc1ccc(Br)cc1S(=O)(=O)NCCCN1CCOCC1	6	112	18	110	/	i	0.96
CC1(C)CC(=O)N(CC(=O)NC2CCCC2)c2ccccc2S1(=O)=O	0	105	/	/	-2.4	i	1
Cc1ccc(CN=c2c([N+](=O)[O-])nn(-c3ccc4c(c3)OCCO4)n2O)cc1	-1	106	-21	92	-1.0	i	0.96
C/C(=N/NC(=O)CN1CCN(Cc2ccccc2Cl)CC1)c1cccnc1	/	98	/	/	/	i	1
C/C(=N\NC(=O)c1ccc(CSc2nncn2C)cc1)c1ccc(Cl)cc1	-7	119	-10	98	-0.8	i	0.87
Cc1ccc(/C=N/c2sc3c(c2C(N)=O)CCCC3)o1	7	96	/	/	/	i	1
CC(C)c1ccc(S(=O)(=O)c2cc3cc(Br)ccc3oc2=O)cc1	4	105	-3	105	-1.3	i	0.77
COC(=O)c1cccc(NC(=O)NC23CC4CC(CC(C4)C2)C3)c1	-6	102	-22	66	-1.4	i	0.98
C=CCN1C(=O)CN=C1Nc1ccc(OC)cc1OC	-1	93	-27	117	-2.8	i	1.1
CCCNC(=O)c1c(O)c2c([nH]c1=O)CCCC2	-2	100	-13	134	/	i	0.8
COc1ccc(CCN(C)CC(=O)Nc2cc(C)nc3ccccc23)cc1OC	/	101	/	/	/	i	0.96
S=C(NCc1ccco1)N/N=C/c1ccccc1Cl	-12	63	33	66	-0.9	i	0.97
Cn1cc(/C=N/NC(=O)COc2ccccc2[N+](=O)[O-])c2ccccc21	1	98	9	179	-0.7	i	0.89
CCOc1ccc(CNC(=O)c2ccc(Sc3ccc(C)cc3)c(NC(C)=O)c2)cc1OC	5	108	-14	101	-0.4	i	1
CCCn1cc(SCC(=O)NCc2ccc3c(c2)OCO3)c2ccccc21	10	75	/	/	-2.3	i	0.94
COC(=O)CCCC1=CC2=C(c3ccccc3)C(=O)C(C)(OC(=O)C3CCCC3)C(=O)C2=CN1c1ccc(OC)cc1 (stereo unspecified)	/	96	/	/	/	i	0.9
Cc1nc2c(=O)oc3ccccc3c2n1-c1ccccc1	-2	296	22	81	-0.2	i	1
CCCCC1(C)Nc2ccccc2-c2nc3ccccc3n21 (stereo unspecified)	-5	100	-26	332	-0.5	i	0.96
Cc1cc(C(=O)CSc2nc(N)cc(=O)[nH]2)c(C)n1-c1ccc(OC(F)F)cc1	-4	107	/	/	/	i	1
Cc1nn2c(c1-c1ccccc1)NC1=C(C(=O)CCC1)C2c1ccccc1 (stereo unspecified)	-7	96	0	236	-2.6	i	0.91
O=C(N/N=C/c1cccc(Cl)c1)C(c1ccncc1)N1CCOCC1 (stereo unspecified)	/	90	/	/	/	i	0.96
CN(C)/N=C/c1cc(Cl)cc([N+](=O)[O-])c1O	-4	87	7	102	-1.9	i	1.2
Cc1cc2nc(CO)[nH]c2cc1C	/	97	/	/	/	i	0.91
COc1ccc(-n2c(=O)c3ccccc3n(CC(=O)NCc3ccco3)c2=O)cc1	-6	99	/	/	/	i	1
O=C(CN(Cc1ccccc1)S(=O)(=O)c1ccc(Br)cc1)N/N=C/c1ccccc1C(=O)O	/	99	/	/	/	i	1.1

Quoted from the entries so far for reference:
SMILES	PKD1 inh	RGS16-Gao HTS	Insulin prom inh	Insulin prom inh cell count	GALR2 agonist	HSV augment	HSV augment primary fold
O=C(N/N=C/c1cccc(Cl)c1)C(c1ccncc1)N1CCOCC1 (stereo unspecified)	/	90	/	/	/	i	0.96
CN(C)/N=C/c1cc(Cl)cc([N+](=O)[O-])c1O	-4	87	7	102	-1.9	i	1.2
Cc1cc2nc(CO)[nH]c2cc1C	/	97	/	/	/	i	0.91
COc1ccc(-n2c(=O)c3ccccc3n(CC(=O)NCc3ccco3)c2=O)cc1	-6	99	/	/	/	i	1
O=C(CN(Cc1ccccc1)S(=O)(=O)c1ccc(Br)cc1)N/N=C/c1ccccc1C(=O)O	/	99	/	/	/	i	1.1

Three of these compounds in a different format:
S=C(NCc1ccco1)N/N=C/c1ccccc1Cl
  PKD1 inh = -12; RGS16-Gao HTS = 63; Insulin prom inh = 33; Insulin prom inh cell count = 66; GALR2 agonist = -0.9; HSV augment = i; HSV augment primary fold = 0.97
Cn1cc(/C=N/NC(=O)COc2ccccc2[N+](=O)[O-])c2ccccc21
  PKD1 inh = 1; RGS16-Gao HTS = 98; Insulin prom inh = 9; Insulin prom inh cell count = 179; GALR2 agonist = -0.7; HSV augment = i; HSV augment primary fold = 0.89
CCOc1ccc(CNC(=O)c2ccc(Sc3ccc(C)cc3)c(NC(C)=O)c2)cc1OC
  PKD1 inh = 5; RGS16-Gao HTS = 108; Insulin prom inh = -14; Insulin prom inh cell count = 101; GALR2 agonist = -0.4; HSV augment = i; HSV augment primary fold = 1

Remaining list, next part:
SMILES	PKD1 inh	RGS16-Gao HTS	Insulin prom inh	Insulin prom inh cell count	GALR2 agonist	HSV augment	HSV augment primary fold
COc1ccc(CN(C(=O)Cc2cccs2)C(C(=O)NC2CCCC2)c2ccncc2)cc1 (stereo unspecified)	-6	100	0	70	-0.6	i	1.4
c1ccc(-c2nc(N3CCOCC3)c3ccccc3n2)nc1	2	101	/	/	-1.8	i	0.71
CCOP(=O)(OCC)C(Nc1ccccn1)c1ccccc1 (stereo unspecified)	12	33	-3	52	-1.8	i	0.93
Cn1cc(C(=O)c2cccc(Cl)c2)cc1/C=N\O	-2	96	/	/	/	i	0.98
Cc1ccc(C(=O)Nc2cccc([N+](=O)[O-])c2)cc1S(=O)(=O)Nc1ccc(NC(=O)c2ccccc2)cc1	-2	102	36	120	0.8	i	0.74
Cc1ccc(S(=O)(=O)NCCNC(=O)N2CCOCC2)cc1	-5	114	26	107	-0.4	i	0.7

Assay outcomes (PubChem BioAssay)
